MLL AF4-AF9 inh = inhibitors of human MLL-AF4/AF9 interaction. AlphaScreen, biotin-AF4 peptide binding to FLAG-AF9. inhibition, % at 10 µM. actives 0.47% (n = 350,000). AID 651704;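 active means every replicate reaching a set inhibition limit, whatever the replicate mean, cut at about 25% in these data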;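 further: 0% = plate neutral control median and 100% = total signal loss; the record names both 10 and 1 µM as test concentration; the first replicate is given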
Target sequence (P42568 whole entry, looked up): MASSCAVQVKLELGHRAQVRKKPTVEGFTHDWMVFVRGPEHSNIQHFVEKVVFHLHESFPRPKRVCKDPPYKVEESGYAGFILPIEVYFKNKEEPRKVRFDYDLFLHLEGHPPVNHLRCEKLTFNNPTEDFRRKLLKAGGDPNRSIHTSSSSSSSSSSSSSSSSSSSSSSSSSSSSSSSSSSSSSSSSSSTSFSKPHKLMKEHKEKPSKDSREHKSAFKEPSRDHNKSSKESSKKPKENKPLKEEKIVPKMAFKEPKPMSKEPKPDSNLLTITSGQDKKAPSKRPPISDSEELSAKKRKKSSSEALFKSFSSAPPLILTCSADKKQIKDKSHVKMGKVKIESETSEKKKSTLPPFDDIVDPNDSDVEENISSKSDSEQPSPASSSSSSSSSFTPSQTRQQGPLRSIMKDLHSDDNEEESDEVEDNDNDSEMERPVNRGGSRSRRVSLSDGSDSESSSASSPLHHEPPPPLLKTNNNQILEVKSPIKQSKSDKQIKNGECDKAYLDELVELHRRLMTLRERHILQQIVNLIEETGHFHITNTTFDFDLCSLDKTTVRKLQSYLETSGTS
rRNA inh HTS = inhibitors of bacterial rRNA selective over humanized ribosomes. AID 720706. actives 1.6% (n = 350,000). GFP signal change (wild-type ribosome), % (concentration not given with the values). E. coli WT GFP vs humanized-ribosome RFP mutants, fluorescence, 24 h; hits give low values; DMSO median 0, no signal -100;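 active means significant combined selectivity score with lowered wild-type GFP, culture density cut under 30%, mutant RFP and density less affected; inactive means any of these conditions unmet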; further: one replicate is shown; some compounds called inactive have numbers as strong as hits
ALR H2O2 inh = human ALR oxidase inhibition via reduced H2O2. P55789. purified ALR, DTT oxidation, H2O2 HRP-luminol luminescence. inhibition, % (test concentration not listed). actives 3.8% (n = 290,000). AID 485317;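 active means mean and each replicate at 75% or more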;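 further: stock transfer was 7.5 nL into about 7.5 µL; 0% = neutral wells and 100% = wells with inactivated enzyme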
FGF22 binding = shifts melting point of recombinant human FGF22 | recombinant FGF22 thermal shift, SYPRO orange fluorescence; percent of sucrose octasulfate shift, DMSO zero | Q9HCT0 | calls only at 9.99 µM | actives 1.5% (n = 340,000);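 active means melting point raised past a set limit in the mean and every replicate; three in four hits are not shown here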
E coli growth = E. coli growth inhibition; OD600 absorbance (concentration not given with the values); actives 0.21% (n = 330,000); Escherichia coli growth, OD600, 23 h; hits give low values;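 active means OD600 absorbance below the run mean of sample wells minus 3.6 SD, in any replicate, cut at about 0.56 in these data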;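 further: stock transfer was 300 nL into about 60 µL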
HNF4A DNA FP = change in binding of human HNF4 alpha to DNA. P41235. HNF4a-FITC DNA binding, fluorescence polarization, 1 h. activity change, % at 10 µM. actives 0.3% (n = 360,000). AID 1224865; in the data active means activity change above about 30%, passing the limit was not always enough;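 further: controls were the assay level and a saturating level of protein; the project sought stronger binding though the title names inhibitors; some compounds called inactive have numbers as strong as hits; positive values seem to mean higher polarization but the record does not say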
Target sequence (P41235 whole entry, looked up): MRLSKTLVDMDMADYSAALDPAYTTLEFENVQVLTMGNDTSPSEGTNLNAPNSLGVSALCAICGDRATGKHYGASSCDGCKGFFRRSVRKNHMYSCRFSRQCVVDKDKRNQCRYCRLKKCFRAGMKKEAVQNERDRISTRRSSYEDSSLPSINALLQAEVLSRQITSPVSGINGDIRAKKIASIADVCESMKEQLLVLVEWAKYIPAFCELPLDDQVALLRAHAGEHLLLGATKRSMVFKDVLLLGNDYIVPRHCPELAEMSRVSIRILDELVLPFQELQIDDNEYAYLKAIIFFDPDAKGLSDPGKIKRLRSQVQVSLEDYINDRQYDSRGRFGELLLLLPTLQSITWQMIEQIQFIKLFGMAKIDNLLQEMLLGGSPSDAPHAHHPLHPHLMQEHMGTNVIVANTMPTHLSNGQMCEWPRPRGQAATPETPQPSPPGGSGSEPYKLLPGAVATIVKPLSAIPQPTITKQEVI
Vif A3G = inhibitors of Vif binding to APOBEC3G peptide, primary screen, biochemical, TR-FRET, GST-Vif 1-94, biotin-A3G peptide, dose response retest (AID 1117319). TR-FRET GST-Vif / biotin-A3G peptide binding; higher % means a stronger effect; test concentration not given here; strong numbers were not always called active. inhibition, %; hits with a dose series show IC50 in µM. actives 0.57% (n = 260,000);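 active means above the screen mean plus three standard deviations and confirmed in dose response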;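 further: Vif residues 1-94 fused to GST binding biotinylated APOBEC3G peptide 110-148; 0% = full assay without inhibitor and 100% = GST in place of GST-Vif; retest series ran down from 100 µM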
rRNA inh HTS OD600 = further read-out of rRNA inh HTS, marked with its call; OD600 change, %; measured here: OD600 growth;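 optical density of the mix in the first replicate; 0 = DMSO median and -100 = no signal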
rRNA inh HTS RFP = further read-out of rRNA inh HTS, marked with its call; RFP signal change, %; measured here: RFP humanized mutant strains;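 first replicate; 0 = DMSO median and -100 = no signal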
An asterisk follows results filed as active; i = inactive; nt = not tested or not shown. These rows are one share of the data. The share of hits here may be higher or lower than overall.

SMILES	MLL AF4-AF9 inh	rRNA inh HTS	rRNA inh HTS OD600	rRNA inh HTS RFP	ALR H2O2 inh	FGF22 binding	E coli growth	HNF4A DNA FP	Vif A3G
CO[C@@H]1CN(C)C(=O)c2ccc(NC(=O)NC(C)C)cc2OC[C@@H](C)N(Cc2ccccc2)C[C@@H]1C	1.0	-3	-10	2.9	nt	i	nt	nt	nt
CCC(=O)N1CCC2(CC1)CN(Cc1ccc(Cl)cc1)[C@H](CO)c1[nH]c3cc(OC)ccc3c12	-2.7	1	-7	4.4	nt	i	nt	nt	nt
Cc1ccc(S(=O)(=O)N(C)C[C@@H]2Oc3ccc(N(C)C)cc3C(=O)N([C@@H](C)CO)C[C@@H]2C)cc1	4.0	-5	-2	1.3	nt	i	nt	nt	nt
COc1ccccc1C(=O)N1CCN(C(=O)[C@H]2O[C@@H](n3ccc(=O)[nH]c3=O)[C@H](O)[C@@H]2O)CC1	-1.5	5	15	12	nt	i	nt	3.1	nt
CN(CC(=O)Nc1ccc(F)c(F)c1F)C(=O)C1CCCCC1	-7.8	2	6	2.1	nt	i	0.7	2.3	nt
CCn1c(SCC(=O)NCC2CCCO2)nnc1-c1c[nH]c2ccccc12 (stereo not drawn)	nt	nt	nt	nt	-1	nt	0.69	0.3	14%
COc1cccc(C(=O)N2CCN(S(C)(=O)=O)CC2)c1	nt	nt	nt	nt	-12	nt	0.75	0.1	1%
COc1cccc(OCCNc2ccc([N+](=O)[O-])cn2)c1	6.3	-6	-14	23	-1	i	0.63	-1.0	1%
Cc1nn2c(=O)[nH]cnc2c1Cl	-0.8	nt	nt	nt	nt	i	nt	1.1	4%
O=C1c2cccc3cccc(c23)C(=O)N1CCN1CCN(C(=S)Nc2ccccc2)CC1	nt	nt	nt	nt	1	nt	0.72	-0.8	nt
CCCNC(=O)N1[C@H](CO)[C@H]2c3ccccc3N(C(=O)NC(C)C)C[C@H]21	1.8	1	1	0.6	nt	i	nt	nt	nt
CCc1cc(-c2nnn(CCC3COCCO3)c2C(C)(C)O)ccc1-c1cn(CCc2c[nH]c3ccccc23)nn1 (stereo not drawn)	0.5	-7	-1	4.2	nt	i	nt	-2.6	-5%
CCCCc1nc(SCC(=O)Nc2nnc(C(C)C)s2)n[nH]1	-1.5	-1	3	-2.0	1	i	0.73	-0.9	-5%
CCC(CC)C(=O)Nc1cccc(C(=O)Nc2nccs2)c1	nt	nt	nt	nt	4	nt	0.76	2.3	-3%
Cc1[nH]c2ccc(C(=O)N3CCN(c4ccccn4)CC3)cc2c1C	-3.3	8	-1	-0.1	11	i	0.66	103*	-5%
Cc1cc(CSc2ccccc2C(=O)O)on1	-3.4	0	6	-1.3	0	i	0.69	5.4	nt
CC(=O)Nc1ccc(Sc2ccccc2C(=O)O)c(C(=O)O)c1	-3.1	9	-1	-3.3	-8	i	0.66	-1.9	-3%
CC(=O)O[C@H]1CC[C@@]2(C)C(=CC[C@H]3[C@@H]4CC[C@H](C(C)=O)[C@@]4(C)CC[C@@H]32)C1	-3.4	5	12	0.0	1	i	nt	-1.7	nt
O=S(=O)(c1ccc(NC(=S)NN=C(Cc2ccccc2)Cc2ccccc2)cc1)N1CCOCC1	2.0	-12	-15	-2.0	-6	i	0.73	3.2	16%
O=C(OC1CCCCC1=O)c1cc(Cl)ccc1[N+](=O)[O-] (stereo not drawn)	-18	-5	-2	-5.5	91*	i	0.71	-14	-2%

Profiles as entered above. Screens in order: MLL AF4-AF9 inh, rRNA inh HTS, rRNA inh HTS OD600, rRNA inh HTS RFP, ALR H2O2 inh, FGF22 binding, E coli growth, HNF4A DNA FP, Vif A3G
Entry for Cc1cc(CSc2ccccc2C(=O)O)on1 → -3.4, 0, 6, -1.3, 0, i, 0.69, 5.4, nt
Entry for CCc1cc(-c2nnn(CCC3COCCO3)c2C(C)(C)O)ccc1-c1cn(CCc2c[nH]c3ccccc23)nn1 (stereo not drawn) → 0.5, -7, -1, 4.2, nt, i, nt, -2.6, -5%

New compounds follow
SMILES	MLL AF4-AF9 inh	rRNA inh HTS	rRNA inh HTS OD600	rRNA inh HTS RFP	ALR H2O2 inh	FGF22 binding	E coli growth	HNF4A DNA FP	Vif A3G
C[C@@H]1CN([C@@H](C)CO)C(=O)c2cccc(NC(=O)Nc3ccc(F)cc3)c2O[C@@H]1CN(C)S(=O)(=O)c1cccs1	0.8	0	-4	1.7	nt	i	nt	nt	nt
CCCCCn1c(N)c(-c2nc3ccccc3o2)c2c([N+](=O)[O-])nn(CC)c(=O)c21	7.6	nt	nt	nt	31	i	0.72	-16	nt
CC(=O)Nc1ccc(CC(=O)Nc2ccc3c(c2)OC2(CCCC2)O3)cc1	-1.8	-4	-1	1.0	nt	i	nt	-0.6	nt
C[C@@H]1CN([C@H](C)CO)C(=O)c2cc(NC(=O)Cc3cn(C)c4ccccc34)ccc2O[C@@H]1CN(C)C(=O)Nc1ccc2c(c1)OCO2	8.4	-1	6	1.9	nt	i	nt	nt	nt
CSCC[C@H](NC(=O)[C@@H]1Cc2ccccc2CN1)C(=O)NC[C@H]1CC[C@H](C(=O)O)CC1	-2.0	9	12	-0.6	-1	i	nt	-0.3	-2%
CC(C)(C)n1nc(-c2ccc(Cl)cc2)c2c(N)ncnc21	nt	nt	nt	nt	-3	nt	0.73	1.5	-1%
CC(=O)N1CCc2cc(S(=O)(=O)CCC(=O)NCc3ccc(Cl)cc3)ccc21	-1.3	-10	-6	-12	3	i	0.65	2.3	nt
COc1cccc(NC(=O)Nc2cc(C)ccc2OC)c1	0.8	5	8	1.5	nt	i	0.71	3.1	3%
CCOC(=O)c1ccc(N=Cc2nc3ccccc3n2C)cc1	5.2	1	2	-2.8	-3	i	nt	1.5	-1%
COc1cccc(NC(=O)N2C[C@@H](O)COC[C@H]3O[C@H](CC(=O)NC4CCCC4)CC[C@@H]32)c1	-4.6	-4	-10	-1.1	nt	i	nt	nt	nt
O=C1C2CC=CCC2C(=O)N1c1nc2n(n1)C(c1ccccc1)CC(c1ccccc1)N2 (stereo not drawn)	nt	nt	nt	nt	-4	nt	0.72	2.0	0%
Cc1nonc1NC(=O)CSc1nnc(-c2ccoc2C)n1C	nt	nt	nt	nt	-1	nt	0.72	1.2	-6%
C[C@H]1CN([C@@H](C)CO)C(=O)Cc2cc(NS(=O)(=O)c3ccccc3)ccc2O[C@@H]1CN(C)Cc1ccccc1	4.5	-1	-10	3.6	nt	i	nt	nt	nt
CCOc1cc(/C=N\n2nnnc2N)ccc1O	-0.3	-1	0	1.4	99*	i	nt	-1.0	-1%
COc1ccc(C(=O)/C=C/c2ccc(OC)c(Cn3nnc4ccccc43)c2)cc1	nt	nt	nt	nt	44	nt	0.7	-4.5	0%
COc1ccc(/C(O)=C2\C(=O)C(=O)N(c3cc(C)on3)C2c2ccc(OC)c(OC)c2)cc1OC (stereo not drawn)	nt	nt	nt	nt	5	nt	0.72	-0.8	-2%
O=C(Cc1ccncc1)NCC[C@@H]1CC[C@H](NS(=O)(=O)c2ccccc2Cl)[C@H](CO)O1	1.9	1	5	-0.2	nt	i	nt	nt	nt
O=C(C1CCOCC1)N1C[C@@H]2[C@H](c3ccccc31)[C@H](CO)N2Cc1ccccc1F	-0.9	-2	1	-2.3	nt	i	nt	nt	nt
Cc1ccccc1-n1c(SCc2ccccn2)nc2n[nH]c(C)c2c1=N	nt	nt	nt	nt	0	nt	0.76	-0.2	2%
O=C(COC(=O)c1cc(-c2ccccc2)nc2ccccc12)NCC1CCCO1 (stereo not drawn)	-1.7	4	9	-0.4	-39	i	0.73	4.7	nt
CC1=C(C(=O)Nc2ccccc2C)C(c2cccs2)NC(=S)N1 (stereo not drawn)	-2.9	-5	0	4.4	-3	i	0.66	-0.2	-15%
O=C(NCCCn1ccnc1)c1sc2cc([N+](=O)[O-])ccc2c1Cl	-7.4	-16*	7.7*	0.2*	nt	i	nt	7.7	2%
Cc1ccc(OCCCCN2CCCCC2)c(Br)c1	nt	nt	nt	nt	0	nt	0.61	-3.0	nt
CCCCCCCCN1C(=O)[C@@H](CC(=O)N2CCOCC2)C[C@@]2(C(=O)OC)C1=C[C@H](C1CCCC1)O[C@@H]2C	0.5	2	-3	2.7	nt	i	nt	nt	nt
Cc1ccc(S(=O)(=O)Nc2ccc3c(c2)C(=O)N([C@H](C)CO)C[C@@H](C)[C@@H](CN(C)Cc2ccc(C(=O)O)cc2)O3)cc1	-2.9	4	1	0.1	nt	i	nt	nt	nt
COc1ccc(C(=O)/C=C/c2ccc(OC)c(COc3ccc(F)cc3)c2)cc1	-3.8	-5	1	4.3	1	i	0.72	-2.7	-2%
COc1cc(COCC(O)CN2CCCCC2C)cc(OC)c1OC (stereo not drawn)	-2.0	10	8	-7.9	6	i	0.69	-1.4	-8%
COC(=O)[C@]12CCCCC=C1N(CCc1ccc(OC)c(OC)c1)C(=O)[C@H](CC(=O)NCCCN1CCCC1=O)C2	-0.9	-1	9	-1.8	nt	i	nt	3.0	nt
CCC(CC)C(=O)Nc1cccc(C(=O)N2CCCC2)c1	0.9	-2	8	-4.6	-6	i	0.63	-0.6	-1%
COc1ccc(C(=O)N2CCCCCC2)cc1OC1CCN(C(C)C)CC1	0.3	2	18	0.1	0	i	0.7	1.9	nt
COc1ccccc1NC(=O)CSc1nnc(-c2ccoc2C)n1C	3.5	6	6	-2.0	nt	i	0.71	2.9	-4%
C[C@@H]1CCCCO[C@H](CN(C)C(=O)c2ccccc2)[C@@H](C)CN([C@H](C)CO)C(=O)c2cc(NC(=O)Nc3ccccc3)ccc2O1	-5.9	-1	1	0.2	nt	i	nt	nt	nt
COC(=O)c1[nH]c2ccc(Br)cc2c1NC(=O)CN1CCCc2ccccc21	nt	nt	nt	nt	-4	nt	0.73	7.5	-14%

By substructure, those above containing a Cl atom (7)
SMILES	MLL AF4-AF9 inh	rRNA inh HTS	rRNA inh HTS OD600	rRNA inh HTS RFP	ALR H2O2 inh	FGF22 binding	E coli growth	HNF4A DNA FP	Vif A3G
CCC(=O)N1CCC2(CC1)CN(Cc1ccc(Cl)cc1)[C@H](CO)c1[nH]c3cc(OC)ccc3c12	-2.7	1	-7	4.4	nt	i	nt	nt	nt
Cc1nn2c(=O)[nH]cnc2c1Cl	-0.8	nt	nt	nt	nt	i	nt	1.1	4%
O=C(OC1CCCCC1=O)c1cc(Cl)ccc1[N+](=O)[O-] (stereo not drawn)	-18	-5	-2	-5.5	91*	i	0.71	-14	-2%
CC(C)(C)n1nc(-c2ccc(Cl)cc2)c2c(N)ncnc21	nt	nt	nt	nt	-3	nt	0.73	1.5	-1%
CC(=O)N1CCc2cc(S(=O)(=O)CCC(=O)NCc3ccc(Cl)cc3)ccc21	-1.3	-10	-6	-12	3	i	0.65	2.3	nt
O=C(Cc1ccncc1)NCC[C@@H]1CC[C@H](NS(=O)(=O)c2ccccc2Cl)[C@H](CO)O1	1.9	1	5	-0.2	nt	i	nt	nt	nt
O=C(NCCCn1ccnc1)c1sc2cc([N+](=O)[O-])ccc2c1Cl	-7.4	-16*	7.7*	0.2*	nt	i	nt	7.7	2%

Screens (PubChem BioAssay)
